YB-1 expr inh – YB-1 expression inhibition | 30,000 compounds, 0.37% hits | U2OS, qRT-PCR YB-1 vs CDIP delta delta Cp, 16 h; hits give high values; zero = DMSO, each unit about twofold | AID 434959 | delta delta Cp (YB-1 minus CDIP) (concentration not given with the values);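 active means delta delta Cp rounded down to an integer at or above 3, about 3 SD of DMSO wells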;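 further: higher means less YB-1 transcript or more CDIP transcript relative to DMSO; stock transfer was 100 nL into about 100 µL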
An asterisk follows results filed as active. The list is partial; rates above refer to the full screens.

SMILES	YB-1 expr inh
C=CCNC(=O)[C@H]1[C@@H]2C(=O)O[C@@H](c3ccccc3)[C@@H](c3ccccc3)N2[C@@H](c2ccccc2OCCO)[C@]12C(=O)N(C(=O)OCCOC)c1ccc(C#CC3=CCCCC3)cc12	-0.11
C[C@@H]1CN([C@@H](C)CO)C(=O)CCCn2nncc2CO[C@H]1CN(C)S(=O)(=O)c1ccc2ccccc2c1	0.29
COC(=O)CCCCCCC(=O)N/N=C/c1ccc(N(C)C)cc1	-0.21
Cc1noc(C)c1NC(=O)N(C)C[C@@H]1Oc2ncc(C#Cc3cccc(F)c3)cc2C(=O)N([C@H](C)CO)C[C@@H]1C	0.53
C[C@@H]1CN([C@@H](C)CO)C(=O)CCCn2nncc2CO[C@H]1CN(C)Cc1ccc2c(c1)OCCO2	0.24
C[C@@H]1CN([C@@H](C)CO)C(=O)CCCn2nncc2CO[C@H]1CN(C)C(=O)c1ccc2ccn(C)c2c1	-0.16
C[C@H](CO)N1C[C@H](C)[C@H](CN(C)S(=O)(=O)c2ccc(F)cc2)Oc2ncc(-c3ccc(F)cc3)cc2C1=O	-0.02
COC(=O)CCCCCCC(=O)N/N=C/c1cccc(OCCO)c1	0.53
COc1ccc(C#Cc2ccc3c(c2)[C@]2(C(=O)N3)[C@H](C(=O)NC[C@H](O)c3ccccc3)[C@H]3C(=O)O[C@H](c4ccccc4)[C@H](c4ccccc4)N3[C@@H]2c2ccc(OCCO)cc2)cc1	-0.72
COc1ccc(Br)cc1/C=N/NC(=O)c1cccc(C(=O)NO)c1	-0.079
O=S(=O)(NCC1CCN(Cc2ccc(OCCO)cc2)CC1)c1ccccc1	0.99
C[C@H](CO)N1C[C@H](C)[C@@H](CN(C)CC2CCCCC2)OCc2cnnn2CCCC1=O	-0.044
C[C@H](CO)N1C[C@H](C)[C@H](CN(C)C(=O)NC2CCCCC2)Oc2ncc(C#Cc3cccc(F)c3)cc2C1=O	-0.093
C[C@@H]1CN([C@H](C)CO)C(=O)CCCn2cc(nn2)CO[C@H]1CN(C)C(=O)Nc1ccc(N2CCCCC2)cc1	-0.43
Cc1noc(C)c1NC(=O)N(C)C[C@@H]1Oc2ncc(C#CCN(C)C)cc2C(=O)N([C@H](C)CO)C[C@@H]1C	-0.33
C[C@@H]1CN([C@@H](C)CO)C(=O)c2cc(NC(=O)CCCCCC(=O)Nc3ccccc3N)ccc2O[C@H]1CN(C)C(=O)Nc1cccc2ccccc12	0.5
O=C(CCCCCCC(=O)Nc1ccccc1O)N/N=C/c1c(O)ccc2ccccc12	0.52
Cc1ccsc1/C=N/NC(=O)CCCCCC(=O)O	-0.12
CCCNC(=O)[C@@H]1c2ccccc2C(=O)N(CC23CC4CC(CC(C4)C2)C3)[C@H]1c1ccc(CO)cc1	0.18
C[C@H](CO)N1C[C@H](C)[C@H](CN(C)S(=O)(=O)c2cccc(C#N)c2)OCc2cnnn2CCCC1=O	0.34
C[C@@H]1CN([C@H](C)CO)C(=O)CCCn2cc(nn2)CO[C@H]1CN(C)C(=O)c1cc(-c2ccccc2)on1	-0.4
C[C@H]1CN([C@@H](C)CO)C(=O)CCCn2cc(nn2)CO[C@@H]1CN(C)C(=O)CCC(F)(F)F	-0.54
C[C@H](CO)N1C[C@H](C)[C@H](CN(C)S(=O)(=O)c2ccccc2)OCc2cnnn2CCCC1=O	-0.37
COc1ccc(NC(=O)N(C)C[C@@H]2Oc3ncc(C#CC(C)(C)O)cc3C(=O)N([C@H](C)CO)C[C@@H]2C)cc1	-0.38
O=C(O)C1=C[C@@H](c2csc3ccccc23)C[C@@H](OCCCCO)O1	-0.47
C[C@H](CO)N1C[C@H](C)[C@H](CN(C)S(C)(=O)=O)Oc2ncc(-c3cccc(C(F)(F)F)c3)cc2C1=O	0.16
C[C@@H]1CN([C@@H](C)CO)C(=O)CCCn2cc(nn2)CO[C@H]1CN(C)C(=O)Nc1cccc(C(F)(F)F)c1	-0.5
COCCOC(=O)N1C(=O)[C@@]2(c3cc(C#CCNC(N)=O)ccc31)[C@H](C(=O)N1CCc3cc(OC)c(OC)cc3C1)[C@H]1C(=O)O[C@H](c3ccccc3)[C@H](c3ccccc3)N1[C@@H]2c1ccccc1OCCO	-0.2
COc1ccc(CCNC(=O)[C@@]2(Cc3ccccc3I)c3ccccc3C(=O)N(Cc3ccccc3OC)[C@H]2c2ccc(CO)cc2)cc1	-0.33
C[C@H](CO)N1C[C@H](C)[C@H](CN(C)S(=O)(=O)c2ccc3c(c2)OCCCO3)OCc2cn(nn2)CCCC1=O	0.37
COc1ccc([Si](C)(C)[C@@H]2[C@@H](CCO)O[C@]3(C(=O)N(Cc4cccc(N5CCOC5=O)c4)c4ccccc43)[C@H]2C)cc1	-0.31
O=C(N/N=C/c1cccc2ccccc12)c1ccccn1	-0.17
O=C(CCCCCCC(=O)Nc1ccccc1O)N/N=C/c1ccccc1O	0.25
COC(=O)C(CC#Cc1ccc2c(c1)[C@]1(C(=O)N2)[C@H](C(=O)Nc2nc3ccccc3s2)[C@H]2C(=O)O[C@H](c3ccccc3)[C@H](c3ccccc3)N2[C@@H]1c1ccccc1OCCO)C(=O)OC	-0.1
O=C1O[C@H](c2ccccc2)[C@H](c2ccccc2)N2[C@H]1[C@@H](C(=O)NC[C@H](O)c1ccccc1)[C@]1(C(=O)Nc3ccc(C#CCCO)cc31)[C@H]2c1ccc(OCCO)cc1	-0.21
C=CCN1C(=O)[C@]2(O[C@H](CCO)[C@@H]([Si](C)(C)c3ccc(OC)cc3)[C@@H]2C)c2cc(I)ccc21	0.41
COc1cccc(CN(C)C[C@H]2OCc3cnnn3CCCC(=O)N([C@H](C)CO)C[C@@H]2C)c1	0.31
CC(=O)NCCCC[C@@H]1NC(=O)[C@H]2C[C@@H](C(=O)NCCCCCCN(C)C)[C@@H](c3cccc(OCCO)c3)N2C1=O	-0.056
COc1ccc(Br)c(/C=N/NC(=O)c2ccccn2)c1	0.28
COC(=O)CCCCCCC(=O)N/N=C/c1ccccc1Cl	0.0069
Cc1ccc(/C=N/NC(=O)CCCCCC(=O)NO)o1	0.4
COc1ccccc1CN(C)C[C@@H]1OCc2cnnn2CCCC(=O)N([C@H](C)CO)C[C@@H]1C	-0.34
C[C@H](CO)N1C[C@H](C)[C@@H](CN(C)C(=O)Nc2ccc(C(F)(F)F)cc2)OCc2cn(nn2)CCCC1=O	0.21
C[C@@H]1CN([C@H](C)CO)C(=O)CCCn2cc(nn2)CO[C@@H]1CN(C)C(=O)c1cc(-c2ccccc2)on1	0.11
Cc1noc(C)c1S(=O)(=O)N(C)C[C@H]1OCc2cnnn2CCCC(=O)N([C@@H](C)CO)C[C@H]1C	-0.02
C[C@@H]1CN([C@H](C)CO)C(=O)CCCn2nncc2CO[C@H]1CN(C)C(=O)C1CCCCC1	0.42
C[C@@H]1CN([C@@H](C)CO)C(=O)CCCn2nncc2CO[C@@H]1CN(C)C(=O)Nc1ccc(N2CCCCC2)cc1	-0.14
COC(=O)CCCCCCC(=O)N/N=C/c1ccc(F)cc1	0.096
C[C@H]1CN([C@@H](C)CO)C(=O)CCCn2cc(nn2)CO[C@H]1CN(C)Cc1ccncc1	-0.027
O=C(N/N=C/c1cccc(B(O)O)c1)c1ccccn1	-0.28
COc1ccc([Si](C)(C)[C@H]2[C@H](CCO)O[C@@]3(C(=O)N(Cc4cccc(N5CCC5=O)c4)c4ccccc43)[C@@H]2C)cc1	-0.037
[N-]=[N+]=Nc1ccccc1C[C@@]1(C(=O)NCC(O)CO)N=C(c2ccc(OCCCO)cc2)O[C@@H]1c1ccccc1 (stereo not given in full)	0.32
COc1ccc([Si](C)(C)[C@@H]2[C@@H](CCO)O[C@]3(C(=O)N(Cc4ccc(N5CCCCC5=O)cc4)c4ccccc43)[C@H]2C)cc1	-0.32
O=C(CCCCCC(=O)N/N=C/c1ccc(O)c2ccccc12)NO	-0.22
C[C@H]1CN([C@@H](C)CO)C(=O)CCCn2nncc2CO[C@@H]1CN(C)C(=O)c1cc(-c2ccccc2)on1	-0.23
C[C@H]1CN([C@@H](C)CO)C(=O)CCCn2cc(nn2)CO[C@@H]1CN(C)C(=O)NC1CCCCC1	-0.52
C[C@@H]1CN([C@@H](C)CO)C(=O)CCCn2cc(nn2)CO[C@H]1CN(C)S(=O)(=O)c1ccc(Oc2ccccc2)cc1	-0.24
C[C@@H]1CN([C@@H](C)CO)C(=O)CCCn2nncc2CO[C@@H]1CN(C)Cc1cccc(C(=O)O)c1	-0.43
C[C@H]1CN([C@@H](C)CO)C(=O)CCCn2cc(nn2)CO[C@H]1CN(C)Cc1ccc(-c2ccccc2)cc1	-0.16
O=C(CCCCCCC(=O)Nc1ccccc1O)N/N=C/c1ccc(O)c(F)c1	0.21

Grouped by structure, the entries above containing bromine.
SMILES	YB-1 expr inh
COc1ccc(Br)cc1/C=N/NC(=O)c1cccc(C(=O)NO)c1	-0.079
COc1ccc(Br)c(/C=N/NC(=O)c2ccccn2)c1	0.28

Some of the entries above, set out differently.
SMILES | YB-1 expr inh
C[C@H]1CN([C@@H](C)CO)C(=O)CCCn2cc(nn2)CO[C@@H]1CN(C)C(=O)NC1CCCCC1 | -0.52
C[C@@H]1CN([C@@H](C)CO)C(=O)CCCn2cc(nn2)CO[C@H]1CN(C)S(=O)(=O)c1ccc(Oc2ccccc2)cc1 | -0.24
C[C@@H]1CN([C@@H](C)CO)C(=O)CCCn2nncc2CO[C@@H]1CN(C)Cc1cccc(C(=O)O)c1 | -0.43
C[C@H]1CN([C@@H](C)CO)C(=O)CCCn2cc(nn2)CO[C@H]1CN(C)Cc1ccc(-c2ccccc2)cc1 | -0.16
O=C(CCCCCCC(=O)Nc1ccccc1O)N/N=C/c1ccc(O)c(F)c1 | 0.21

Further compounds follow.
SMILES	YB-1 expr inh
C[C@H](CO)N1C[C@H](C)[C@H](CN(C)S(=O)(=O)c2ccccc2)Oc2ncc(Br)cc2C1=O	-0.12
COc1ccc(CN(C)C[C@@H]2OCc3cnnn3CCCC(=O)N([C@@H](C)CO)C[C@H]2C)cc1	-0.22
O=C(NCCN1CCOCC1)[C@]1(Cc2ccccc2)N=C(c2ccc(OCCCO)cc2)O[C@@H]1c1ccccc1	0.073
Cc1ccc(O)c(/C=N/NC(=O)CCCCCC(=O)O)c1	-0.087
Cc1ccc(S(=O)(=O)N(C)C[C@@H]2Oc3ncc(/C=C/c4ccccc4)cc3C(=O)N([C@H](C)CO)C[C@@H]2C)cc1	-0.36
COc1ccc(/C=N/NC(=O)c2ccccc2O)cc1Br	-0.27
C[C@H](CO)N1C[C@H](C)[C@H](CN(C)S(=O)(=O)c2ccc(F)cc2)Oc2ncc(Br)cc2C1=O	0.37
Cc1noc(C)c1NC(=O)N(C)C[C@H]1OCc2cnnn2CCCC(=O)N([C@H](C)CO)C[C@@H]1C	0.18
Cc1ccccc1CN(C)C[C@H]1OCc2cn(nn2)CCCC(=O)N([C@H](C)CO)C[C@H]1C	0.43
COC(=O)N(C)C[C@@H]1OCc2cn(nn2)CCCC(=O)N([C@H](C)CO)C[C@@H]1C	0.13
C[C@H](CO)N1C[C@H](C)[C@H](CN(C)C(=O)Nc2cccc3ccccc23)Oc2ncc(Br)cc2C1=O	-0.21
COc1ccc([Si](C)(C)[C@H]2[C@H](CCO)O[C@@]3(C(=O)N(Cc4cccc(NC(=O)[C@H](C)O)c4)c4ccccc43)[C@@H]2C)cc1	0.0065
C=CC[C@]1(C(=O)N(C)C)N=C(c2ccc(OCCCO)cc2)O[C@H]1c1ccccc1	-0.2
C[C@@H]1CN([C@@H](C)CO)C(=O)CCCn2cc(nn2)CO[C@H]1CN(C)Cc1ccc(-c2ccccc2)cc1	-0.097
COc1cc(/C=N/NC(=O)c2ccccn2)c(Br)cc1O	0.18
COc1cc(/C=N/NC(=O)c2ccccc2O)c([N+](=O)[O-])cc1OC	-0.8
C=CCOC(=O)[C@H]1[C@@H]2C(=O)O[C@@H](c3ccccc3)[C@@H](c3ccccc3)N2[C@@H](c2ccc(OCCOC(=O)[C@@H]3C[C@@H]4C(=O)N[C@@H](Cc5ccccc5)C(=O)N4[C@@H]3c3ccc(O)cc3)cc2)[C@]12C(=O)Nc1ccc(I)cc12	0.55
O=C(N/N=C\c1ccc2ccccc2n1)c1ccccn1	-0.58
C[C@@H]1CN([C@H](C)CO)C(=O)CCCn2cc(nn2)CO[C@@H]1CN(C)C(=O)Nc1cccc(C(F)(F)F)c1	-0.1
COC(=O)N(C)C[C@@H]1OCc2cn(nn2)CCCC(=O)N([C@@H](C)CO)C[C@@H]1C	-0.1
C[C@H]1CN([C@@H](C)CO)C(=O)CCCn2nncc2CO[C@H]1CN(C)Cc1ccc(C(F)(F)F)cc1	0.12
C[C@@H]1CN([C@H](C)CO)C(=O)CCCn2cc(nn2)CO[C@H]1CN(C)Cc1cccc(O)c1	-0.062
C[C@H]1CN([C@@H](C)CO)C(=O)CCCn2nncc2CO[C@H]1CN(C)Cc1ccncc1	-0.018
C[C@@H]1CN([C@H](C)CO)C(=O)CCCn2cc(nn2)CO[C@H]1CN(C)S(=O)(=O)c1ccc2c(c1)OCCCO2	0.041
O=C(CCCCC(=O)N/N=C/c1nccs1)NO	-0.015
COc1ccc(-c2cnc3c(c2)C(=O)N([C@H](C)CO)C[C@H](C)[C@H](CN(C)S(=O)(=O)c2ccc(C#N)cc2)O3)cc1	-0.28
COC(=O)CCCCCCC(=O)N/N=C/c1ccc(OC)cc1O	-0.22
C=CCNC(=O)[C@@H]1[C@H]2C(=O)O[C@H](c3ccccc3)[C@H](c3ccccc3)N2[C@H](c2ccccc2OCCO)[C@@]12C(=O)N(C(=O)OCCOC)c1ccc(C#CC3(O)CCCCCC3)cc12	-0.13
